Screens: PubChem BioAssay, Broad Institute
AF4-AF9 inh: inhibitors of human MLL-AF4/AF9 interaction; P42568; AlphaScreen, biotin-AF4 peptide binding to FLAG-AF9; inhibition, % at 10 µM; actives 0.47% (n = 350,000);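 active means every replicate reaching a set inhibition limit, whatever the replicate mean, cut at about 25% in these data; inconclusive means mean inhibition reaches that limit but some replicates miss it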;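 further: 0% = plate neutral control median and 100% = total signal loss; the record names both 10 and 1 µM as test concentration; the first replicate is given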
Target sequence (P42568 whole entry, looked up): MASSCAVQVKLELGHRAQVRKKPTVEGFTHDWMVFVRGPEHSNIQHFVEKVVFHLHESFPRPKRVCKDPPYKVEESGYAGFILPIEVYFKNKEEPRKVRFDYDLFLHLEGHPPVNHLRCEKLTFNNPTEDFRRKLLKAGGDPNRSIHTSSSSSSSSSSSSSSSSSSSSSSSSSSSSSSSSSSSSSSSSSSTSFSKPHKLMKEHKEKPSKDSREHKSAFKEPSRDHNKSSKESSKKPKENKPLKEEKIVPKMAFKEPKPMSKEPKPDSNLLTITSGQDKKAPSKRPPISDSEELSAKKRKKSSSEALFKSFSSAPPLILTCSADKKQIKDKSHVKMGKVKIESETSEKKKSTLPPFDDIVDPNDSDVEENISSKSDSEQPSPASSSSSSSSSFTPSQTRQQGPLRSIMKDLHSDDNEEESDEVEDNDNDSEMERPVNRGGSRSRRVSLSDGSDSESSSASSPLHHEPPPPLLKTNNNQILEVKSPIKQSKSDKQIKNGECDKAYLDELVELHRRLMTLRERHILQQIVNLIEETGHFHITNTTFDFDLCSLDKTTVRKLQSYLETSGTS
Active calls of the source: *; ? = inconclusive; & = joins results of further samples. Some of the compounds tested; the hit share may differ from the screen's.

compound,AF4-AF9 inh
CC(=O)N1[C@H](CNC(=O)C2CC2)[C@@H](c2ccc(-c3ccc(F)cc3)cc2)[C@@H]1CO,1.9
C[C@@H]1CN([C@@H](C)CO)C(=O)c2cc(NS(=O)(=O)c3ccccc3)ccc2O[C@@H]1CN(C)S(=O)(=O)c1cn(C)cn1,0.4
CC(C)CC#Cc1ccc([C@H]2[C@@H](CO)N3CCCCN(C(=O)Nc4ccccc4)C[C@@H]23)cc1,3.3
COc1cccc(CN2[C@@H]3CN(C(=O)C4CC4)c4ccccc4[C@@H]3[C@@H]2CO)c1,0.7
Cc1noc(C)c1S(=O)(=O)Nc1ccc2c(c1)C(=O)N([C@@H](C)CO)C[C@H](C)[C@H](CN(C)S(=O)(=O)c1ccccc1)O2,-1.3
CCNC(=O)C1(C)CCCN(Cc2cccc3ccccc23)C1 (stereo not given),-0.5
C[C@H](CO)N1C[C@H](C)[C@@H](CN(C)C(=O)Nc2ccc3c(c2)OCO3)OCCCC[C@H](C)Oc2ccc(NC(=O)c3ccccc3)cc2C1=O,-3.0
CCOC(=O)Cc1ccc(Nc2nc(NCc3cccs3)nc3ccsc23)cc1,-0.2
C[C@@H]1CN([C@@H](C)CO)C(=O)c2cc(-c3ccc(F)cc3)cnc2O[C@H]1CN(C)Cc1ccc(C(=O)O)cc1,-4.1
Cc1cccc(S(=O)(=O)N2CCCCN3[C@@H](CO)[C@@H](c4ccc(C#C[C@@H](C)O)cc4)[C@@H]3C2)c1,4.1
CC(=O)N1C[C@@H](CO)[C@@H](N(C)C(=O)c2ccco2)C[C@H]1c1ccccc1,-2.9
CCN1C[C@@H]2[C@@H]3C(=O)N(Cc4ccccc4)C(=O)[C@@H]3[C@](C)(C1=O)N2C(=O)c1ccc(Cl)cc1,-0.3
O=C(C[C@H]1CC[C@@H]2[C@H](COC[C@H](O)CN2CCc2ccccc2)O1)NCc1ccccc1,-0.2
CCCCCCCCN1C(=O)[C@H](CC(=O)NCC23CC4CC(CC(C4)C2)C3)C[C@@]2(C(=O)OC)CCCCC=C12,-1.8
O=C(CCN1CCCCC1)N[C@@H]1CC[C@H](CCn2cc(-c3ccc(F)cc3)nn2)O[C@@H]1CO,1.4
C[C@H](CO)N1C[C@H](C)[C@H](CN(C)C(=O)Nc2ccccc2)Oc2ccc(NC(=O)NC3CCCCC3)cc2C1=O,-5.3
O=C(N[C@@H]1CC[C@H](CCNS(=O)(=O)c2ccc(Cl)cc2)O[C@H]1CO)c1cccnc1,4.1
Cc1noc(C)c1NC(=O)N(C)C[C@H]1Oc2ncc(C#CCC(C)C)cc2C(=O)N([C@@H](C)CO)C[C@@H]1C,-1.5
O=C(C1CC1)N1CCCCN2[C@H](C1)[C@@H](c1ccc(C#CC3CC3)cc1)[C@@H]2CO,-2.7
N#C[C@@H]1N[C@@H](CO)[C@@H]1c1ccc(C#Cc2ccc(F)cc2)cc1,-1.4
COc1cccc(-c2ccc3c(c2)[C@H]2[C@H](CCN2C(=O)C2CCCC2)[C@@H](CO)N3)c1,?
CN(C)CCNc1ncnc2c1ncn2[C@H]1CN(Cc2cccnc2)C[C@@H](CO)O1,-1.4
CC(C)(C)OC(=O)N1CCc2onc(-c3ccc([N+](=O)[O-])cc3)c2C1=O,2.5
O=C(C[C@@H]1CC[C@@H]2NC[C@H](O)COC[C@H]2O1)Nc1ccccc1,-0.6
O=C(NCCN1CCCC1)[C@H]1[C@H](CO)[C@H]2Cn3c(cccc3=O)[C@@H]1N2C(=O)c1ccccc1,-0.2
O=C(C[C@H]1CC[C@@H]2[C@H](COC[C@H](O)CN2S(=O)(=O)c2ccccc2)O1)NCCN1CCCC1,1.8
C[C@@H]1CN([C@H](C)CO)C(=O)c2cc(NS(=O)(=O)c3cccs3)ccc2O[C@H]1CN(C)C(=O)Nc1ccccc1,-0.8
COc1ccc(S(=O)(=O)N[C@@H]2CC[C@@H](CCn3cc(-c4cccc(F)c4)nn3)O[C@@H]2CO)cc1,-0.6
C/C=C/c1ccc([C@H]2[C@H](CO)N(C(=O)CC)[C@H]2CNC(=O)C2CC2)cc1,0.9
C[C@@H]1CN([C@@H](C)CO)C(=O)CCCn2cc(nn2)CO[C@H]1CN(C)C(=O)Nc1ccc(F)cc1,-2.4&-2.6

Taken from the results shown, two compounds:
compound,AF4-AF9 inh
C/C=C/c1ccc([C@H]2[C@H](CO)N(C(=O)CC)[C@H]2CNC(=O)C2CC2)cc1,0.9
C[C@@H]1CN([C@@H](C)CO)C(=O)CCCn2cc(nn2)CO[C@H]1CN(C)C(=O)Nc1ccc(F)cc1,-2.4&-2.6

The listing picks up with the three entries that preceded the break.
compound,AF4-AF9 inh
COc1ccc(S(=O)(=O)N[C@@H]2CC[C@@H](CCn3cc(-c4cccc(F)c4)nn3)O[C@@H]2CO)cc1,-0.6
C/C=C/c1ccc([C@H]2[C@H](CO)N(C(=O)CC)[C@H]2CNC(=O)C2CC2)cc1,0.9
C[C@@H]1CN([C@@H](C)CO)C(=O)CCCn2cc(nn2)CO[C@H]1CN(C)C(=O)Nc1ccc(F)cc1,-2.4&-2.6
CCCN1C[C@@H](C)[C@H](OC)CN(C)C(=O)c2cc(NC(=O)c3ccccc3F)ccc2OC[C@H]1C,-1.1
COCC#Cc1ccc2c(c1)O[C@H](CN(C)S(C)(=O)=O)[C@H](C)CN([C@H](C)CO)S2(=O)=O,-2.8
C[C@@H]1CN([C@H](C)CO)C(=O)c2cc(NC(=O)C3CCCCC3)ccc2O[C@@H](C)CCCCO[C@H]1CN(C)S(=O)(=O)c1ccc(F)cc1,-2.1
CN1C(=O)c2cc(NS(C)(=O)=O)ccc2OC[C@H]2O[C@@H](CC(=O)N3CCOCC3)CC[C@@H]21,-0.1
C[C@@H]1CN([C@H](C)CO)C(=O)c2cc(-c3cccnc3)cnc2O[C@H]1CN(C)C(=O)Nc1ccccc1,-4.4
C[C@@H]1CN([C@H](C)CO)C(=O)c2cc(-c3cccc(C#N)c3)cnc2O[C@@H]1CN(C)C,-4.1
C[C@H](CO)N1C[C@H](C)[C@H](CN(C)CC2CC2)Oc2c(NC(=O)CCCCCC(=O)Nc3ccccc3N)cccc2C1=O,-2.2
COCCNC(=O)C1(C)CCCN(C(=O)c2cc(C)oc2C)C1 (stereo not given),-1.1
C[C@@H]1CN([C@@H](C)CO)C(=O)c2cccc(NC(=O)CCCCCC(=O)Nc3ccccc3N)c2O[C@@H]1CN(C)S(=O)(=O)c1ccc(Cl)cc1,-11
C[C@H](CO)N1C[C@H](C)[C@H](CN(C)C(=O)CC2CC2)Oc2cc(Br)ccc2S1(=O)=O,-1.9&-2.7&0.5
CO[C@@H]1CN(C)C(=O)c2cc(NC(=O)C3CCCCC3)ccc2OC[C@@H](C)N(Cc2nccs2)C[C@H]1C,0.3
COc1ccc(CN2CC3(CN(C(C)=O)C3)c3c(n(C)c4cc(OC)ccc34)[C@H]2CO)cc1,1.1
C[C@H](CO)N1C[C@H](C)[C@@H](CN(C)Cc2ccccc2)Oc2cc(Br)ccc2S1(=O)=O,5.9
O=C(Nc1cccc(F)c1)N1CCCCN2[C@H](CO)[C@@H](c3ccc(C#Cc4cccnc4)cc3)[C@H]2C1,15
O=C(C[C@@H]1C=C[C@H](NC(=O)Nc2ccccc2F)[C@@H](CO)O1)NCc1ccccc1,-2.3
Cc1noc(C)c1S(=O)(=O)N(C)C[C@@H]1Oc2ccc(NC(=O)NC3CCCCC3)cc2CC(=O)N([C@@H](C)CO)C[C@H]1C,-0.9
O=C(NCC[C@H]1CC[C@@H](NS(=O)(=O)c2ccccc2)[C@@H](CO)O1)c1cc(Cl)cc(Cl)c1,0.7
COc1ccc(S(=O)(=O)Nc2cccc3c2O[C@H](CN(C)Cc2ccc4c(c2)OCO4)[C@H](C)CN([C@H](C)CO)C3=O)cc1,17
Cc1noc(C)c1NC(=O)N(C)C[C@H]1Oc2ccc(NS(=O)(=O)c3ccccc3)cc2CC(=O)N([C@H](C)CO)C[C@@H]1C,-2.0
CO[C@@H]1CN(C)C(=O)c2cc(NC(=O)C3CCCCC3)ccc2OC[C@@H](C)N(Cc2cccnc2)C[C@H]1C,0.6
C[C@@H]1CN([C@@H](C)CO)C(=O)Cc2cc(N(C)C)ccc2O[C@H]1CN(C)S(=O)(=O)c1cn(C)cn1,-4.0
O=C(C[C@H]1CC[C@@H](NS(=O)(=O)c2ccccc2)[C@H](CO)O1)NCc1ccccc1F,-0.7
COc1ccc(S(=O)(=O)N(C)C[C@@H]2Oc3ncc(-c4ccncc4)cc3C(=O)N([C@@H](C)CO)C[C@@H]2C)cc1,-2.7
C[C@@H]1CCCCO[C@H](CN(C)S(=O)(=O)c2cccs2)[C@@H](C)CN([C@@H](C)CO)C(=O)c2cc(NC(=O)Nc3ccccc3)ccc2O1,3.1
Cc1ccc(S(=O)(=O)Nc2ccc3c(c2)CC(=O)N([C@H](C)CO)C[C@@H](C)[C@@H](CN(C)C(=O)Nc2c(C)noc2C)O3)cc1,0.3
COCC#Cc1cnc2c(c1)C(=O)N([C@@H](C)CO)C[C@@H](C)[C@H](CN(C)C(=O)Nc1ccc(OC)cc1)O2,1.0
O=C(C[C@@H]1CC[C@@H](NC(=O)Nc2ccc3c(c2)OCO3)[C@H](CO)O1)NCc1ccc(F)cc1,-0.7
Cc1noc(C)c1NC(=O)Nc1ccc2c(c1)C(=O)N([C@@H](C)CO)C[C@@H](C)[C@H](CN(C)C)O2,-2.8
O=C(C[C@H]1CC[C@H]2[C@@H](COC[C@H](O)CN2C(=O)c2ccncc2)O1)NC1Cc2ccccc2C1,-1.5
N#C[C@@H]1[C@H](c2ccccc2-c2cccc(F)c2)[C@@H](CO)N1C(=O)c1cccnc1,-0.3

Further results
molecule | AF4-AF9 inh
C=CCN1[C@@H](C)[C@H](c2ccccc2)Oc2cccc(NCCc3ccccc3)c2S1(=O)=O | 1.2
O=c1cc(CN(Cc2ccccc2)Cc2ccccc2)c2ccccc2o1 | -3.8
C[C@H]1CN([C@@H](C)CO)C(=O)c2cccc(NC(=O)c3ccc(-c4nccs4)cc3)c2O[C@H]1CN(C)S(=O)(=O)c1ccc(F)cc1 | 0.1
C[C@@H]1CCCCO[C@@H](CN(C)C(=O)C2CCCCC2)[C@@H](C)CN([C@@H](C)CO)C(=O)c2cc(NS(=O)(=O)c3cn(C)cn3)ccc2O1 | -0.3
COc1ccc2c3c(n(C)c2c1)[C@@H](CO)N(Cc1cccnc1)CC31CN(C(=O)c2cccnc2)C1 | -3.9
C[C@H]1CN([C@@H](C)CO)C(=O)c2cc(C#CC3CC3)cnc2O[C@@H]1CN(C)S(=O)(=O)c1cccc(F)c1 | 1.0
O=C(C[C@H]1C=C[C@H](NC(=O)NC2CCCCC2)[C@@H](CO)O1)NCc1ccc(Cl)cc1 | -0.1
COc1ccc(NC(=O)Nc2ccc3c(c2)CC(=O)N([C@@H](C)CO)C[C@H](C)[C@@H](CN(C)S(=O)(=O)c2ccccc2)O3)cc1 | -0.5
O=C(Nc1cc(F)ccc1F)N[C@@H]1CC[C@H](CCNC(=O)c2cnccn2)O[C@@H]1CO | -4.7
COCCNC(=O)C[C@@H]1CC[C@H]2[C@H](COc3ccc(NC(=O)Nc4ccccc4)cc3C(=O)N2C)O1 | 0.5
CC=Cc1ccc2n(c1=O)C[C@@H]1[C@@H](CO)[C@H](C(=O)NC3CCC3)N(CCC(F)(F)F)[C@H]21 (mixture of isomers) | -14
Cc1ccc(S(=O)(=O)Nc2ccc3c(c2)C(=O)N([C@@H](C)CO)C[C@H](C)[C@@H](CN(C)S(=O)(=O)c2ccc(C)cc2)OCCCC[C@@H](C)O3)cc1 | -5.3
CC(C)NC(=O)NCC[C@@H]1CC[C@@H](NC(=O)Nc2ccccc2)[C@H](CO)O1 | -1.2
C[C@@H]1CN([C@@H](C)CO)C(=O)c2cc(NC(=O)Nc3ccc(C(F)(F)F)cc3)ccc2O[C@@H](C)CCCCO[C@H]1CN(C)S(=O)(=O)c1ccc(F)cc1 | -6.9
COC(=O)C[C@@H]1CC[C@H]2[C@@H](COc3ccc(NC(=O)c4ccc(F)cc4)cc3C(=O)N2C)O1 | -0.8
N#Cc1ccc(-c2nc3ccc(Cl)cn3c2Cc2ccsc2)cc1 | 0.6
CCCNC(=O)Nc1ccc2c(c1)C(=O)N(C)[C@H]1CC[C@H](CC(=O)Nc3cccc(C)c3)O[C@@H]1CO2 | 0.5
C[C@@H]1CCCCO[C@H](CN(C)C(=O)CCCN(C)C)[C@H](C)CN([C@@H](C)CO)C(=O)c2cc(NC(=O)c3ccccc3)ccc2O1 | -5.2
COCCNC(=O)C[C@H]1C[C@@H]2c3cc(NC(=O)CC4CC4)ccc3O[C@@H]2[C@@H](CO)O1 | -4.0
CN1c2ccc(Br)cc2[C@H]2[C@H](CCN2C(=O)Nc2ccccc2F)[C@H]1CO | -2.5
COc1ccc2c(c1)C(=O)O[C@@H](c1ccccc1)C[C@@H](O)C(=O)CC2 | -16
Cc1ccc(S(=O)(=O)Nc2ccc3c(c2)C(=O)N(C)[C@@H]2CC[C@H](CC(=O)NCCc4ccncc4)O[C@H]2CO3)cc1 | -0.6
CO[C@H]1CN(C)C(=O)c2ccc(NC(=O)c3ccc(F)cc3)cc2OC[C@@H](C)N(C(C)=O)C[C@@H]1C | 0.6
COc1cc(OC)c(C(=O)Nc2cc(S(=O)(=O)N3CCOCC3)ccc2N2CCOCC2)cc1OC | -2.5
C[C@H]1CN([C@@H](C)CO)C(=O)c2cc(C#Cc3ccccn3)cnc2O[C@@H]1CN(C)Cc1cncnc1 | -1.8
O=C(C[C@H]1CC[C@H]2[C@@H](COC[C@@H](O)CN2S(=O)(=O)c2ccc(Cl)cc2)O1)N[C@@H]1CCN(Cc2ccccc2)C1 | -0.1

Among those listed so far, 3 have bromine:
molecule | AF4-AF9 inh
C[C@H](CO)N1C[C@H](C)[C@H](CN(C)C(=O)CC2CC2)Oc2cc(Br)ccc2S1(=O)=O | -1.9&-2.7&0.5
C[C@H](CO)N1C[C@H](C)[C@@H](CN(C)Cc2ccccc2)Oc2cc(Br)ccc2S1(=O)=O | 5.9
CN1c2ccc(Br)cc2[C@H]2[C@H](CCN2C(=O)Nc2ccccc2F)[C@H]1CO | -2.5
